Screening results: PubChem, several laboratories
Bead autofluor: compound fluorescence in toxin protease inhibitor counterscreen. AID 624483. compound autofluorescence counterscreen, microsphere flow cytometry; hits give high values. 360,000 compounds, 3.1% hits. fluorescence intensity (no concentration beside the values);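 active means at least 3 SD above the mean of all compounds, about 16000 in these data; inconclusive means too few beads counted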;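 further: 100 nL of 1 mM stock went into each well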
PrP UTR inh: suppresses PrP 5' UTR mRNA reporter expression | 340,000 compounds, 0.35% hits | cell-based PrP 5' UTR mRNA reporter, plate reader | AID 488862 | inhibition, % (no concentration beside the values);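 active means every replicate at 50% or more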;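 further: 0 = median of the neutral control wells; tested in H4 reporter cells; numbers are from one replicate; inactives centre near -14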
Mtb hypoxia rep: inhibitors of hypoxia-regulated fluorescent reporter in Mycobacterium tuberculosis; AID 1159583; M. tuberculosis hypoxia-regulated fluorescent reporter, fluorescence; 300,000 compounds, 0.1% hits; fluorescence inhibition, % (concentration not given with the values);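 active means 35 to 45% if threefold the growth effect, above 45% if 1.5-fold the growth effect; inactive means the rest, general growth blockers included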;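 further: wells of about 50 µL received 100 nL stock; 0% = vehicle wells and 100% = reference inhibitor wells; whole bacteria with a GFP reporter of the hypoxia response; strong numbers were not always called active; many hits fall short of the cut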
RN4220 kill: S. aureus RN4220 growth inhibition; OD600, 16 h; 330,000 compounds, 0.33% hits; AID 1259311; inhibition, % (test concentration not listed);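 active means z-score of -3 or lower and OD600 up to 0.18 on both plates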;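 further: plate controls were untreated cells for no effect and reference antibiotic for full effect; stock transfer was 100 nL into about 80 µL; one replicate is shown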
BJeLR lethal: kills HRASV12-expressing BJeLR cells; AID 1554; inhibition, % (test concentration not listed); BJeLR (HRASV12) viability, CellTiter-Glo ATP luminescence, 48 h; reference of the scale not given here; 300,000 compounds, 0.17% hits;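 active means replicate mean above 50%; inconclusive means above 50% but judged a plate artefact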;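 further: 50 nL library stock added to about 25 µL; numbers are from one replicate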
Sa ugtP lethal: kills S. aureus RN4220 lacking UgtP. 330,000 compounds, 0.54% hits. AID 1259309. growth inhibition, % (concentration not given with the values). S. aureus RN4220 ugtP deletion, OD600 growth, 16 h; some inactives read as strong as hits;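 active means z-score under -3 and OD600 up to 0.15 on both plates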;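 further: plate controls were untreated wells for no effect and antibiotic for full effect; wells of about 80 µL received 100 nL stock; the first replicate is given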
Mtb hypoxia rep growth: also measured in Mtb hypoxia rep; calls as there; growth inhibition, %; measured here: M. tuberculosis growth (absorbance);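 0% = vehicle and 100% = reference antibiotic; read after six days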
Active calls of the source: *; ? = inconclusive; . = no result given; & = joins results of further samples.

mol	Bead autofluor	PrP UTR inh	Mtb hypoxia rep	Mtb hypoxia rep growth	RN4220 kill	BJeLR lethal	Sa ugtP lethal
Cc1ccc(-n2nc3ccc(NC(=O)c4cccc([N+](=O)[O-])c4C)cc3n2)cc1	2152	4.4	-3.7	7.6	6.2	4.6	-10.1
Fc1ccc(NC(=S)NCc2cccnc2)cc1	3824	-10.7	13.7	9.4	0.2	-2.6	6.1
CSc1ncccc1C(=O)OCC(=O)N(CC(C)C)c1c(N)n(Cc2ccccc2)c(=O)[nH]c1=O	5906	-33.2	3.3	11.8	-0.2	5.7	-2.8
CCCOc1ccc(S(=O)(=O)N2C(=O)CC(=O)N(Cc3ccc(OCC)cc3)C2=O)cc1	.	.	4.1	-11.7	-0.4	13.0	4.9
COc1ccc(/C=C/C2=NN(Cc3ccccc3)C(=O)CC2)cc1	2238	-13.8	1.7	5.5	-1.0	3.5	20.0
COc1cccc(-c2nnn(C/C(N)=N/O)n2)c1	2400	-13.0	6.7	-3.3	1.4	3.7	-0.2
O=C(NCc1ccccn1)c1cc(S(=O)(=O)N2CCN(c3ccccc3)CC2)ccc1Cl	22854*	-11.7	3.7	9.9	7.3	1.4	-10.9
CCCC(=O)Nc1ccc(Cl)c(NC(=S)NC(=O)c2ccco2)c1	2630	-27.6	-1.5	5.3	2.7	2.2	-22.1
Cc1scc(C(=O)N/N=C/c2ccsc2)c1C	10066	-127.6	.	.	.	9.1	.
COc1ccccc1NC(=O)NNC(=O)CN1C(=O)COc2ccccc21	4099	-24.6	.	.	.	-3.3	.
Clc1ccc(Cn2ccc3ccccc32)cn1	3361	.	5.4	-3.5	-2.0	9.4	-1.3
CCN(CCCNS(=O)(=O)c1cc(-c2cc(C)no2)ccc1C)Cc1ccccc1	5055	-22.5	.	.	.	-0.7	.
Cc1ccc(N2CCN(/N=C/c3sccc3C)CC2)cc1	16062	-19.1	.	.	.	7.3	.
O=C(O)CSc1nnc(-c2cccs2)n1-c1ccc(Cl)cc1	4051	-22.1	7.4	6.0	0.7	-10.1	-0.9
CCCCN(C(=O)c1ccc(-c2ccc(Cl)cc2)o1)c1c(N)n(CC(C)C)c(=O)[nH]c1=O	4999	-0.9	5.8	6.5	12.8	.	10.7
COc1cccc(C(=O)NCc2ccc3c(c2)cc(C)n3C)c1	1285	-29.1	3.8	2.0	2.9	1.4	7.5
O=C(O)C1=CC(c2coc3ccccc3c2=O)CC(OCCCCO)O1 (stereo not given)	.	.	1.5&9.8	-0.6&11.2	6.7&2.9	.	-0.1&0.5
Cc1c(C(=O)/C=C/N(C)C)nnn1-c1ccc(Cl)cc1C#N	4077	-24.3	-1.9	7.0	1.3	-1.9	-2.5
C/C(=N\NC(=O)c1cc(C)[nH]n1)c1cccs1	4238	-61.2	.	.	.	6.7	.
COc1ccc(CN2CCCC(C(=O)c3cccc(C(F)(F)F)c3)C2)cc1O (stereo not given)	3386	-13.5	-0.1	10.3	6.0	0.7	-11.7
COc1ccc(S(=O)(=O)N2CCC(C(=O)NC3CCCCC3)CC2)cc1C	3603	-21.7	11.7	9.1	-1.8	3.0	8.8
Cc1ccc(C#N)c(SCC(=O)Nc2nccs2)n1	5150	-48.1	8.1	7.7	4.2	5.0	4.6
COC(=O)c1cc(=O)n(Cc2cccs2)c(=Nc2ccccc2)s1	3469	-10.9	1.0	13.5	-6.5	-1.4	30.4
Cc1ccccc1-c1nc(CN2CCC(C(=O)N3CCN(c4ccccn4)CC3)CC2)c(C)o1	5662	5.5	.	.	-3.2	10.7	11.5
CC1(c2ccccc2)NC(=O)N(CC(=O)N2CC(=O)Nc3ccccc32)C1=O (stereo not given)	3805	-25.8	4.1	3.8	3.0	.	7.6
COc1ccccc1NC(=O)C1CC(=O)OC1c1ccccc1 (stereo not given)	4819	1.9	.	.	4.2	2.1	6.4
CC1CCN(CCNC(=O)C2CCCN(c3ncnc4c3nc3n4CCCCC3)C2)CC1 (stereo not given)	5361	-12.2	6.6	6.6	-1.1	1.6	3.0
CC(CN1CCCCC1)OC(=O)c1ccccc1Cl (stereo not given)	2950	-36.1	-3.4	1.4	2.9	17.1	4.0
O=C(C1=C[C@@H](c2ccc(Br)cc2)C[C@@H](OCCCCO)O1)N1CCOCC1	4385	-10.3	.	.	.	4.0	.
FC(F)(F)c1cccc(CNC2CCN(Cc3ccccc3)CC2)c1	.	-11.3	18.6	-5.8	3.8	-1.3	6.8
O=C(c1cc(COc2ccc(F)cc2Cl)on1)N1CCN(C2CCCCC2)C(=O)C1	4550	-17.8	4.4	4.9	3.6	-0.1	-9.5
COc1cccc(C2NC(CC(C)C)(C(=O)O)C3C(=O)N(Cc4ccccc4)C(=O)C23)c1O (stereo not given)	12674	-7.5	-1.5	17.2	-1.8	10.2	-5.7
CCN(CC(=O)NCc1ccc(Cl)cc1)C(=O)c1cc2ccccc2o1	5025	-14.6	8.5	7.6	0.0	-4.0	37.7
Cc1ccc(-c2ocnc2C(=O)Nc2nc(C)cs2)cc1	3906	-46.5	8.0	10.9	0.7	3.3	11.9
Nc1nc(Cl)cc(Oc2ccc([N+](=O)[O-])cc2)n1	3515	-6.7	2.2	6.6	5.8	-1.0	6.6
CCOc1ccc(Cl)cc1S(=O)(=O)N1CCC(C(=O)NCC2CCCO2)CC1 (stereo not given)	4424	-3.5	0.1	-2.3	5.8	-1.7	9.6
COc1ccc(C2C(C(=O)NCC3CCCO3)CCC(=O)N2c2ccc3c(c2)OCO3)cc1 (stereo not given)	8650	-32.2	4.8	4.4	2.8	-9.0	-3.3
CCN(C[C@H]1N[C@@](CC)(C(=O)OC)[C@H]2C(=O)N(Cc3ccccc3)C(=O)[C@@H]12)C(=O)c1ccc(F)cc1	3799	-12.9	-3.1	3.8	1.9	.	1.3
CC(=NNC(=O)CNC(=O)c1ccncc1)c1ccco1	.	.	3.1	-11.4	0.0	.	5.9
COc1ccc(OC)c(S(=O)(=O)NN=C(C)c2c[nH]c3ccccc23)c1	.	.	-6.1	7.8	-2.0	.	-7.5
O=[N+]([O-])c1cccc(NN=Cc2ccc(N3CCOCC3)cc2)c1	.	.	5.1	-5.8	-20.5	.	1.8
Cc1[nH]n(-c2ccccc2)c(=O)c1S(=O)(=O)c1ccccc1	16181*	-19.7	4.5	7.3	6.1	0.5	1.8
COc1ccc(CNC(=O)CN2C(=O)C3C4C=CC(C4)C3C2=O)cc1 (stereo not given)	2305	-19.6	17.0	5.0	3.6	-0.9	5.5
O=C(COc1ccccc1)NC1CCN(Cc2ccccc2)CC1	17241*	-12.0	3.3	3.4	1.6	7.8	3.2
CCCOP(=O)(OCCC)C(NC(=O)c1ccccc1)=C(Cl)Cl	2106	-26.0	-4.4	-4.2	-2.9	-8.7	1.5
Cc1cc(S(=O)(=O)N2CCOCC2)c(C)s1	6293	-15.0	10.6	-1.6	4.7	-9.2	4.9
O=C(Cc1csc(NC(=O)Nc2cccc(Cl)c2)n1)NCc1cccnc1	?	-24.2	2.6	13.3	40.4	13.8	16.0
COC(=O)c1ccc(NC(=O)c2ccc3c(c2)OCO3)cc1	3927	-91.7	10.0	4.6	4.4	-1.1	-0.2
Cc1ccc(C2=NN(C(=S)Nc3ccccc3)C(c3ccco3)C2)cc1 (stereo not given)	2975	-70.0	-5.8	14.3	-1.2	-4.1	-28.7
CC(C)NC(=O)c1ccc(CN2CCc3ccccc3C2)cc1	3048	0.7	2.9	-5.0	2.4	-2.9	6.9

New compounds follow
mol	Bead autofluor	PrP UTR inh	Mtb hypoxia rep	Mtb hypoxia rep growth	RN4220 kill	BJeLR lethal	Sa ugtP lethal
CC(=O)c1cccc(NC(=O)NCCc2c[nH]c3ccccc23)c1	3867	-10.0	-2.1	14.9	0.4	-10.2	-13.9
COc1cc(/C=C(\C#N)C(=O)NCC2CCCO2)ccc1OCC(=O)O (stereo not given)	4397	-3.1	12.6	4.6	3.3	-2.2	5.0
COc1ccc(C(=O)c2coc3ccc(O)c(CN4CCOCC4)c23)cc1	6760	-21.3	.	.	10.3	2.3	-2.6
Cc1ccccc1CNS(=O)(=O)c1c(C(=O)N2CCCC2)c(C)n(C)c1C	5260	-10.3	7.8	5.2	2.5	-10.5	1.9
O=C(NN=Cc1cccnc1)c1ccc(F)cc1	.	.	10.8	-2.0	3.1	.	9.7
O=C(NN=Cc1ccc(OCc2ccccc2)cc1)c1ccc(O)cc1	.	.	0.4	-1.7	32.0	.	6.1
O=C(c1cc(COc2cccc(C(F)(F)F)c2)on1)N1CCC(Oc2cccnc2)CC1	5735	-15.4	-0.5	-0.4	1.8	-1.7	-0.6
Cc1ccc(N2CCN(N=Cc3sccc3C)CC2)cc1	.	.	5.9	6.4	12.7	.	9.5
CC12CCC(C(NC(=S)NN)C1=O)C2(C)C (stereo not given)	3903	-69.4	-1.0	-4.5	1.4	.	1.4
COc1ccc(-c2noc(CCC(=O)N3CCN(c4ccccc4Br)CC3)n2)cc1	3024	-7.4	-4.1	-1.7	-1.1	.	2.4
OC(CN1CCOCC1)Cn1c2ccccc2c2ccccc21 (stereo not given)	4207	-9.2	15.1	9.6	1.8	0.5	-1.4
O=C(CCNC(=O)c1ccc(Br)cc1)Nc1ccc(S(=O)(=O)Nc2ncccn2)cc1	?	-23.2	4.2	10.3	-1.9	5.3	-2.7
CN1CCc2c(sc3c2C(=O)NC(c2cccc(OC(=O)c4cccs4)c2)N3)C1 (stereo not given)	4489	-54.0	3.2	6.1	8.7	-5.6	0.4
O=C(Cn1cnc2c(nnn2Cc2ccc(F)cc2)c1=O)Nc1ccc2c(c1)OCCO2	6237	-24.7	-6.3	6.2	3.3	-5.3	-2.1
Cc1ccc(NC(=O)c2ccc(S(=O)(=O)NCc3cccnc3)cc2)cc1C	5945	-30.2	8.7	-0.8	6.5	-10.2	-11.5
Cc1cccc(Nc2nc(CC(=O)O)cs2)c1	5087	-42.6	7.5	-1.1	4.6	4.3	-0.9
CC1(C)Cc2cccc(OCC(=O)Nc3ccccc3F)c2O1	5743	-14.9	.	.	.	-2.6	.
COC(=O)CSC1=C(C#N)C(=O)NC(c2ccccc2)S1 (stereo not given)	3330	-5.7	1.9	-2.9	9.6	8.0	9.5
CCOC(=O)CC(NC(=O)C(Cc1ccc(N(CCCl)CCCl)cc1)NC(C)=O)C(=O)OCC (stereo not given)	4589	-4.8	15.5	2.1	2.9	-0.5	3.0
O=C(NC(=S)Nc1cccc(-c2ccc(CO)o2)c1)c1cccs1	4547	-39.4	-4.3	-0.2	11.9	-9.7	-15.1
COc1cc(C2c3c([nH]c(=O)[nH]c3=O)Nc3ccc4ccccc4c32)cc(OC)c1OC (stereo not given)	3135	-7.3	-4.6	-5.7	4.6	-0.4	-9.3
CCS(=O)(=O)c1ccc(O)c(N2C(=O)C3C4C=CC(C4)C3C2=O)c1 (stereo not given)	9319	-4.7	7.4	-0.1	3.4	10.7	10.2
O=C1CCC(=O)N1c1cccc(-c2nc3ccccc3o2)c1	4523	34.8	.	.	2.3	5.9	5.4
O=C(c1c(Cl)nc2sccn12)N1CCCc2ccccc21	10337	-22.7	-7.1	14.3	-4.8	-9.5	-6.6
O=C(CC1OC(=O)c2ccccc21)Nc1cccc(S(=O)(=O)N2CCCCCC2)c1 (stereo not given)	6134	-0.1	7.1	-4.4	-1.3	-5.9	-1.4
O=C(Nc1ccc(Cl)cc1)C1CCCN(C2=NS(=O)(=O)c3ccccc32)C1 (stereo not given)	5118	0.1	12.1	1.1	2.1	.	5.0
O=C(COC(=O)C(CO)NS(=O)(=O)c1ccc(Br)cc1)Nc1ccc2c(c1)OCCO2 (stereo not given)	3933	-33.3	-2.6	-0.7	4.6	.	-8.4
C[C@H](CO)N1C[C@H](C)[C@@H](CN(C)Cc2ccc(Oc3ccccc3)cc2)Oc2c(NC(=O)c3ccncc3)cccc2C1=O	3602	-2.1	-10.2	7.1	26.1	.	-9.4
COc1cc2nc(CN3CCN(S(=O)(=O)c4ccc(Cl)cc4)CC3)[nH]c(=O)c2cc1OC	3298	-24.5	-0.8	-1.1	-0.1	-12.8	2.8
